Assay outcomes (PubChem BioAssay)
Env fusion inh – inhibitors of HIV-1 Env-driven cell-cell fusion, primary screen, HeLa-JRFL effector, CEM21 target cells, luciferase; inhibition, % at 12.3 µM; 360,000 compounds, 1.1% hits;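 active means mean replicate inhibition score of at least 50 and every replicate individually at or above 50; inconclusive means only one of the two criteria met; inactive means mean below 50 and not all replicates reaching 50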;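 further: 0% = plate neutral controls and 100% = maraviroc near 300 nM; one replicate is shown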
MT1-MMP act inh – blockers of MT1-MMP proenzyme processing, primary screen, HT1080 RFP-PRO-GFP cells, GFP/RFP fluorescence. AID 651647, 2012. GFP/RFP ratio fluorescence, overnight; percent of plate control window, DMSO zero. 360,000 compounds, 0.061% hits. GFP/RFP ratio change, % at 20 µM. Matrix metalloproteinase-14 (Homo sapiens), P50281;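 active means GFP/RFP ratio change of at least 30% with cell ATP level not reduced by more than half and red fluorescence within 50% of control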; further: strong numbers were not always called active
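Material: RFP-PRO-GFP reporter HT1080 cells. Dosing: single-point 20 µM compound, 1% DMSO. Controls: DMSO and RFP-L50D-GFP cell wells. Timing: cells overnight before dosing, compound overnight, 37 °C, 5% CO2. Measure: GFP/RFP fluorescence ratio.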
MT1-MMP act inh RFP – also measured in MT1-MMP act inh; calls as there; RFP signal change, %; measured here: RFP expression control read;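 0 = vehicle wells; hits needed this value within 50% of zero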
Active calls of the source: *; ? = inconclusive; [ ] = remark or other dose. Only part of the results is shown. The share of hits here may be higher or lower than overall.

SMILES	Env fusion inh	MT1-MMP act inh	MT1-MMP act inh RFP
COc1ccccc1C(=O)NC(=O)COC(=O)c1ccc(Br)o1	-75	-4	0
Cc1ccc(S(=O)(=O)N2CCC(=O)N([C@H](COC(=O)Nc3ccccc3)Cc3ccccc3)CC2)cc1	-29	-4	-4
CCC1c2ccccc2C(=O)C1C(N)=O (configuration not stated)	4	1	1
COc1cccc(C=C2SC(=S)NC2=O)c1	-20	0	1
CSCCC(C(=O)NCc1ccccc1)n1c(-c2ccc3c(c2)CCO3)nc2ccccc21 (configuration not stated)	-31	-1	-5
COc1ccc(Cc2c(-c3ccc(C#N)cc3)nc3c(Cl)cc(C(F)(F)F)cn23)c(C)c1	6	4	2
c1ccc(-c2nc3ccccc3n2C(c2ccccc2)c2nc3ccccc3[nH]2)cc1 (configuration not stated)	-113	1	-10
CCCC[C@@H]1CC2=C(C(=O)OC(C)(C)O2)[C@H](c2ccc(C(C)C)cc2)O1	-17	-1	-4
CC1(C)CC=CC(COC(=O)c2ccccc2C(=O)O)C1 (configuration not stated)	-1	-2	-1
Cc1ccc(S(=O)(=O)N2CCC(C(=O)Nc3ccc(N4CCOCC4)cc3)CC2)cc1C	-2	-3	-3
O=Cc1ccc(-c2cccs2)s1	-5	-1	1
Cc1cccc(C)c1-n1nnnc1C(c1ccnc2ccccc12)N1CCOCC1 (configuration not stated)	17	5	8
CC(C)N1CC2(CC(c3ccccc3C(F)(F)F)=NO2)CN1C(=O)c1ccc(C(C)(C)C)cc1 (configuration not stated)	20	-4	-13
CCCCCCCCN1C(=O)[C@H](CC(=O)N2CCOCC2)C[C@@]2(C(=O)OCC)CCCC=C12	-2	2	-10
Nc1cc2c(cc1Br)[nH]c(=O)c1ccccc12	83*	-33	-10
COC(=O)[C@@]1(Cc2ccc(F)cc2)[C@H]2c3cc(C(=O)N(C)C)n(Cc4ccc(Cl)c(C(F)(F)F)c4)c3C[C@H]2CN1C(=O)c1ccccc1	-33	-38	-29
CCCCCC(=O)N1C[C@@H](O)[C@H](n2cc(-c3ccc(F)cc3)nn2)C[C@@H]1c1ccccc1	15	1	-8
O=C1C=CC2C3C(=O)N(c4ccccc4)C(=O)C3C1N2Cc1ccccc1 (configuration not stated)	-239	-2	-29
CCNC(=O)c1cc2c(c(-c3cccc(-c4cncnc4)c3)n1)[C@H](CCO)N(C(C)=O)C2	-9[16.7 µM]	1	5
NC(=S)N=Nc1ccc(O)cc1	15	-1	2

Arranged by molecular weight (lowest first): some entries from above.
SMILES	Env fusion inh	MT1-MMP act inh	MT1-MMP act inh RFP
NC(=S)N=Nc1ccc(O)cc1	15	-1	2
COc1ccccc1C(=O)NC(=O)COC(=O)c1ccc(Br)o1	-75	-4	0
c1ccc(-c2nc3ccccc3n2C(c2ccccc2)c2nc3ccccc3[nH]2)cc1 (configuration not stated)	-113	1	-10
CCCCCC(=O)N1C[C@@H](O)[C@H](n2cc(-c3ccc(F)cc3)nn2)C[C@@H]1c1ccccc1	15	1	-8
COc1ccc(Cc2c(-c3ccc(C#N)cc3)nc3c(Cl)cc(C(F)(F)F)cn23)c(C)c1	6	4	2
COC(=O)[C@@]1(Cc2ccc(F)cc2)[C@H]2c3cc(C(=O)N(C)C)n(Cc4ccc(Cl)c(C(F)(F)F)c4)c3C[C@H]2CN1C(=O)c1ccccc1	-33	-38	-29

Looked up above:
O=C1C=CC2C3C(=O)N(c4ccccc4)C(=O)C3C1N2Cc1ccccc1 (configuration not stated) – MT1-MMP act inh RFP = -29
Cc1ccc(S(=O)(=O)N2CCC(C(=O)Nc3ccc(N4CCOCC4)cc3)CC2)cc1C – Env fusion inh = -2
CSCCC(C(=O)NCc1ccccc1)n1c(-c2ccc3c(c2)CCO3)nc2ccccc21 (configuration not stated) – MT1-MMP act inh RFP = -5

More records follow.
SMILES	Env fusion inh	MT1-MMP act inh	MT1-MMP act inh RFP
OC[C@@H]1CN(Cc2ccc3c(c2)OCO3)C[C@H](n2cnc3c(N4CCOCC4)ncnc32)O1	11	0	0
CC(=O)Oc1ccc2cc(-c3cccnc3)c(=O)oc2c1	-65	-8	-1
COc1cccc(Cn2cnc(-c3ccccc3OC)c2-c2cc(C)cc(C)c2)c1	-20	2	-3
CC(=O)NC1CCC(=O)C=C1c1ccccc1 (configuration not stated)	0	-5	2
CCOc1cccc(-c2ccc3nncn3c2)c1	-27	-1	6
Cc1nc2nc(C)n(CCN3CCOCC3)c(=O)c2c(-c2cccc([N+](=O)[O-])c2)c1C(=O)CCCCCCCCCCN1CCC(c2ccccc2)(c2ccccc2)CC1	10	-12	-24
CC(C)NC(=O)N1Cc2cc(C(=O)NC3CCC3)nc(-c3cccc(-c4cncnc4)c3)c2[C@H]1CCO	1	3	4
COc1ccc(C2=Nc3ccccc3N(C(=O)c3ccc4ncccc4c3)C2C(=O)NC(C)(C)C)cc1 (configuration not stated)	-19	-1	5
CCOC(=O)[C@]12CCCC=C1N(Cc1ccc3c(c1)OCO3)C(=O)[C@H](CC(=O)N1CCCC1)C2	-16	8	0
O=C(O)CC1CC(O)CCC1=O (configuration not stated)	6	4	3
CCOC(=O)[C@]12CCC=C1N(Cc1cccc3ccccc13)C(=O)[C@H](CC(=O)NCCCCc1ccccc1)C2	-51	2	-5
Cc1ccc(-c2nc3ccccc3n2C(C(=O)NC(C)(C)C)C2CC2)cc1 (configuration not stated)	1	0	1
Cc1ccc(Nc2n[nH]c(=S)s2)cc1F	-71	1	3
Nc1[nH]c(C(=O)c2ccccc2)c(-c2ccc(Br)cc2)c1C(=O)NCCc1c[nH]c2ccccc12	-101	2	0
Cc1ccc(F)c(S(=O)(=O)NC(=O)C2(C)CCN2C(=O)C2(c3ccc(Cl)cc3)CC2)c1 (configuration not stated)	25	-1	5
CC(C)C[C@@H](CN1CCCC1CN1C(=S)NC[C@@H]1Cc1ccccc1)N1C[C@H](Cc2ccccc2)N(CCc2ccccc2)C1=S (some centres not stated)	7	-1	-7
N#Cc1ccccc1OCC(=O)Nc1nnc(C2CC2)s1	-2	-1	3
Cc1ccc(NC(=O)N(O)C2CCCCC2C#N)cc1 (configuration not stated)	-11	4	2
COc1ccc(N2CCN(C3C(=O)Nc4ccccc4-n4nnnc43)CC2)cc1 (configuration not stated)	-4	-1	5
O=C(OC1CC2CC1[C@H]1CCCCN1C2=O)N1CCN(C(=O)c2ccccc2)CC1 (some centres not stated)	-37	2	0
COC(=O)[C@@]12C[C@@H](CC(=O)N3CCCCC3)C(=O)N(Cc3ccccc3)C1=CCC(C)(C)C2	2	-8	-4
CCOC(=O)C(NC(=O)c1ccccc1)C(C)(C)SCc1ccccc1 (configuration not stated)	20	-5	-4
O=C(C[C@@H]1C=C[C@H](NC(=O)Cc2ccccn2)[C@@H](CO)O1)NCCc1ccccc1	14	4	3
CCCCC[C@@H]1CCCCC[C@@H](O)C[C@@H](O)[C@H](O)/C=C/C(=O)O1	-10	0	-1
CC(C)C[C@H]1CN([C@@H](CC(C)C)CN2CCCC2CN2C(=S)NC[C@@H]2Cc2ccccc2)C(=S)N1CCc1ccccc1 (some centres not stated)	24	-1	-15
COCCNc1nc(Oc2cccc(F)c2)c2sccc2n1	-35	-3	-3
C[C@@H]1COc2cc(N3CCSCC3)ccc2S(=O)(=O)N1	?	3	4
CC12CC3OC3CC1CCC1C2CCC2(C)C1CCC21OCCO1 (configuration not stated)	-1	0	-1
Cc1ccccc1CN1CC2=C(CCN(Cc3ccccc3)C2=O)N2CCN=C12	?	5	-10
O=c1[nH]c2ccccc2nc1-c1nnnn1Cc1ccccc1	4	4	4
CSc1ncnc2[nH]ncc12	-11	-2	-3
Cc1ccc(N2CC(O)CSC2=Nc2ccccc2)cc1 (configuration not stated)	-6	0	1
CCOC(=O)[C@]12CCC=C1N(Cc1ccccc1)C(=O)[C@H](CC(=O)N1CCCC1)C2	-77	16	2
CC1(c2nnnn2-c2ccc3c(c2)OCCO3)CCC(=O)N1CC1CCCCC1 (configuration not stated)	15	1	2
O=C1CSc2cc(Cl)ccc2N1	23	-1	0
COCCN1C(=O)CSCC1(C)C(=O)Nc1c(C)cccc1C (configuration not stated)	-5	8	4
N#Cc1ccccc1S(=O)(=O)N1CCN(CC(=O)Nc2ccnn2C2CCCC2)CC1	-9	-4	-6
CCN1C(=O)C(CC(=O)NCCc2ccccc2)N(NC(=O)c2ccc(Br)cc2)C1=S (configuration not stated)	25	-2	-5
CC(=O)OCC(=O)C1(O)CCC2C3CCC4=CC(=O)C=CC4(C)C3C(=O)CC21C (configuration not stated)	-29	1	1
O=C(NNc1nc(N2CCOCC2)nc(N2CCOCC2)n1)c1ccccc1	-15	-3	5
O=C1COc2ccccc2C(c2nc3ccccc3[nH]2)N1C1CC1 (configuration not stated)	11	4	5
COc1ccc(NC(=O)C2CC3C=CC2C3)c([N+](=O)[O-])c1 (configuration not stated)	-2	2	3
CCOC(=O)[C@]12CCCC=C1N(Cc1ccc(Cl)cc1Cl)C(=O)[C@H](CC(=O)NCCCOC)C2	-39	6	0
CCCCCCCCN1C(=O)[C@H](CC(=O)NCCC(C)C)C[C@@]2(C(=O)OCC)CCC=C12	17	-3	-7
CC(NC1=CC(=O)c2cccnc2C1=O)C(O)c1ccccc1 (configuration not stated)	-123	9	11
S=C(NN=Cc1ccccn1)N(Cc1ccccn1)Cc1ccccn1	20	8	-1
Nc1[nH]c(C(=O)c2ccccc2)c(-c2ccc(Br)cc2)c1C(=O)NC1CCCCC1	-90	3	-4
CC(=O)Nc1ccc(NC(=O)C(C)Sc2nnc(C3CC3)n2-c2ccccc2)cc1 (configuration not stated)	6	1	2
C(=NN=C1c2ccccc2-c2ccccc21)c1ccc2c(c1)OCO2	-7	0	-3
COc1ccc(CN2CCC2(C)C(=O)Nc2ccc(OC)c(OC)c2)cc1 (configuration not stated)	-1	1	-1

Random excerpt: 2 compounds from above, in no set order.
SMILES	Env fusion inh	MT1-MMP act inh	MT1-MMP act inh RFP
S=C(NN=Cc1ccccn1)N(Cc1ccccn1)Cc1ccccn1	20	8	-1
CC(NC1=CC(=O)c2cccnc2C1=O)C(O)c1ccccc1 (configuration not stated)	-123	9	11

(further entries)
SMILES	Env fusion inh	MT1-MMP act inh	MT1-MMP act inh RFP
CN(CCc1ccccc1)C(C(=O)c1ccc2c(c1)OCO2)c1nnnn1-c1ccccc1NC(=O)OC(C)(C)C (configuration not stated)	-29	-6	-10
CN(C)c1ncnc2c1ncn2[C@H]1CN(Cc2ccc3c(c2)OCO3)C[C@@H](CO)O1	-12	1	2
CCCc1nc2cc(C)c(Br)c(C)n2c1Cc1ccccc1OC	25	-2	-9
CC1(C(=O)NCc2ccccc2)CSCC(=O)N1Cc1ccco1 (configuration not stated)	-1	2	8
C[C@@H]1CN([C@@H](C)CO)C(=O)c2cc(Br)cnc2O[C@H]1CN(C)Cc1ccccc1C(=O)O	34[16.7 µM]	-2	2
Cn1c(N)c(C(=O)CSc2nnc(C3CC3)n2Cc2ccccc2)c(=O)n(C)c1=O	-3	-2	2
C#CCN(C(=O)C1CCC(=O)N(CCc2cccc(F)c2)C1)C1CCCCC1 (configuration not stated)	-31	-4	-2
O=C(NC1CCCCC1)C(c1cccc2ccccc12)n1c(=O)c(-c2cc3ccccc3[nH]2)nc2ccccc21 (configuration not stated)	-1	-11	-10
CCN(CC(=O)Nc1ccc(NC(C)=O)cc1)C(=O)C1CC1	-13	-8	-1
O=C1c2ccccc2-c2c1c1ccccc1c(=O)n2-c1ccccc1	3	3	-6
O=C1NC(=S)NC1(c1ccccc1)c1ccccc1	2	0	2
CCOc1ccc(CCN2C(=O)C(=O)N([C@@H](Cc3ccccc3)CN3CCC[C@H]3CN3C(=O)C(=O)NC[C@@H]3Cc3ccccc3)C[C@@H]2Cc2ccc(O)cc2)cc1	-18	3	-4
CN1N=C(C(=O)N=c2sc3ccccc3n2C)CCC1=O	-42	-4	-2
Nc1c(Br)cc2c(c1Br)C(O)c1ccccc1-2 (configuration not stated)	1	4	-4
O=C(Nc1ccc2c(c1)OCCO2)C(C1CC1)n1c(=O)c(-c2ccco2)nc2ccccc21 (configuration not stated)	-13	0	4
Cc1ccc(-c2nc3ccccc3n2C(C)C(=O)NC(C)(C)C)cc1 (configuration not stated)	-8	4	4
O=S(=O)(c1ccc(Br)cc1)c1nc(-c2ccco2)oc1NCCCn1ccnc1	3	-1	5
CCOc1ccc(C(=O)Cc2ccccc2)cc1	-55	2	4
Cc1nc2ccccc2n1C(c1cccnc1)c1nc2ccccc2[nH]1 (configuration not stated)	-22	1	4
Cc1cccc(C)c1NC(=O)C(c1ccncc1)N1CCN(CCN(C)C)CC1 (configuration not stated)	-21	1	4
O=C(O)C1(Nc2ccc(Br)cc2)CCCC1	-6	2	4
CC(C)NC(=O)C1(C)CCN1C(=O)C(c1ccccc1)c1ccccc1 (configuration not stated)	5	8	7
CCCCC1Cc2[nH]c(=S)[nH]c(=O)c2C(C(C)C)O1 (configuration not stated)	-1	3	-2
CC1(C)OC(=O)C2=C(C[C@@H](C3CCCC3)O[C@@H]2c2ccc(Cl)cc2)O1	6	2	-5
COc1cc(C2C3=C(COC3=O)Oc3cc4c(cc32)OCO4)cc(OC)c1OC(C)=O (configuration not stated)	37	27	5
O=C(CN1CCN(C(=O)c2ccccc2)CC1)Nc1cccc(S(=O)(=O)N2CCCC2)c1	-16	-2	0
CN(C)CCN1CCN(C2CN(Cc3cn(Cc4ccccc4)nn3)S(=O)(=O)C2)CC1 (configuration not stated)	-1	3	7
